# CDC25B CDK2 inh – primary biochemical HTRF screen for blockers of M-phase inducer phosphatase 2 binding to CDK2/cyclin A | 0.72% of 94,000 active | P30305+P24941 | z-score (concentration not given with the values) | HTRF CDC25B-CDK2/CyclinA binding, anti-His/anti-Flag; stronger effect = higher value | AID 1259370, 2018;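 note: score is relative to mean and SD of negative controls; strong numbers were not always called active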
# HIV TAR-Tat – TAR RNA-Tat peptide displacers, HIV-1, primary screen, biochemical, FRET, FAM/TAMRA-labeled Tat; HIV-1 TAR RNA, Tat peptide displacement FRET; stronger effect = higher value; z-score (concentration not given with the values); 0.6% of 100,000 active; AID 1259389, 2018;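 note: score is relative to mean and SD of negative controls; some compounds called inactive have numbers as strong as hits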
# Starred values were filed as active, the others as inactive; nt = no result given.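 Rule for the calls: active = z-score from 3 up in half or more of its runs; inactive = the rest.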
SMILES | CDC25B CDK2 inh | HIV TAR-Tat
CC1=C(C(=O)OC2CCCCC2)C(c2ccccc2)C2=C(CCCC2=O)N1 (configuration not stated) | -0.94 | 1
CN(Cc1ccccc1)C(=O)c1cc2c(s1)-c1ccccc1OC2 | -1 | -0.37
CCCCC12CN3CC(C)(CN(C1)C3c1ccc(OCC)c(OC)c1)C2=O (configuration not stated) | -2.3 | -0.74
COCCNC(=O)c1cc2c(=O)[nH]c3ccccc3c2n1C | -0.73 | nt
Cc1nc(-c2ccccc2)sc1-c1ccc(SCc2ccccn2)nn1 | nt | 1.8
COc1ccc(Cl)cc1S(=O)(=O)N1CCN(S(=O)(=O)c2cc(Cl)ccc2OC)CC1 | -3.2 | 0.07
CN(CC(=O)NCCCN(C)C1CCCCC1)c1nnc(N2CCCC2=O)s1 | nt | 0.57
COc1cccc(C2C3=C(CC(C)(C)CC3=O)Nc3nc(SCc4cccc(F)c4)nn32)c1OC (configuration not stated) | -2 | -1.2
O=C(O)c1cc(NCc2cccs2)ccc1N1CCOCC1 | -2.1 | -1.1
Cc1sc2ncnc(-n3nnc4ccccc43)c2c1C | -1.9 | nt
CCOC(=O)c1cc(-c2ccc(S(=O)(=O)N(C)CC3COc4ccccc4O3)s2)on1 (configuration not stated) | nt | 1.1
CC(C)c1ccc(CN(C(=O)Cc2coc3ccc(C(C)C)cc23)C2CCS(=O)(=O)C2)cc1 (configuration not stated) | 0.03 | 1.2
COCCN(CCS(=O)(=O)N1CCNCC1)S(=O)(=O)c1ccc(C)cc1 | nt | 0.99
Cc1ccc(N2C(=O)C3C(c4ccccc4F)NC(Cc4ccccc4)(C(=O)O)C3C2=O)cc1 (configuration not stated) | 0.01 | nt
COc1cc(NC(=O)C2=C(C)C(=O)OC23CCN(C(C)C)CC3)cc(OC)c1 | nt | 1.5
O=C1CC(c2ccc3c(c2)OCO3)c2cnn(-c3nc4ccccc4s3)c2N1 (configuration not stated) | nt | 0.88
CCOC(=O)c1c(NC(=O)Cc2coc3ccc(OC)cc23)sc(C)c1C | -1.9 | -2.7
O=C(Nc1ccccc1Cl)c1noc2c1CSc1ccccc1-2 | -1.7 | -0.42
COc1ccc(N=C2SCC(c3ccc([N+](=O)[O-])cc3)=NN2CCO)cc1 | -0.47 | nt
CC(CC(=O)NCCC1=CCCCC1)CC1=NS(=O)(=O)c2ccccc2N1 (configuration not stated) | nt | 0.87

# (next part)
SMILES | CDC25B CDK2 inh | HIV TAR-Tat
COCCN1CSC(=S)N(Cc2ccco2)C1 | -1.6 | nt
CC(C)N(Cc1ccccc1)c1ncnc2c1nnn2C | nt | 2.4
O=C(O)C1CCCN(S(=O)(=O)c2ccc(-c3ccc(=O)[nH]n3)s2)C1 (configuration not stated) | nt | 2.7
OCCc1cn(-c2ccccc2)c2ccccc12 | -0.43 | 0
O=C(Nc1c(-c2cccs2)nc2ccccn12)c1cccc2ccccc12 | -0.09 | -2.9
O=[N+]([O-])CC(Nc1ccccc1)c1ccccc1 (configuration not stated) | -1.7 | nt
CCOC(=O)C(C(=O)OCC)=C(CCN1C(=O)c2ccccc2C1=O)OC(=O)CCN1C(=O)c2ccccc2C1=O | 0.66 | nt
CC(C)c1ccc(C2CC(c3cccs3)n3ncnc3N2)cc1 (configuration not stated) | -0.05 | nt
Cc1ccc(COc2ccc3oc(C)c(C(=O)O)c3c2)cc1 | -1.2 | 1.6
Ic1ccc2c3ccc(I)cc3c3nc4ccccc4nc3c2c1 | -1.6 | nt
O=C(NCCc1ccccc1)c1cc2cccc([N+](=O)[O-])c2[nH]1 | 0.05 | nt
CS(=O)(=O)c1ccccc1C(=O)Nc1nc(-c2nc3ccccc3s2)cs1 | nt | 2.6
CN(C)CCn1c(C(=O)Nc2ccccc2)cc2ccccc21 | -1.3 | nt
COc1ccccc1N1CCN(Cc2cc(=O)n3nc(C4CC4)sc3n2)CC1 | nt | 0.45
CC(Oc1ccccc1)c1nc(-c2ccccn2)no1 (configuration not stated) | -0.56 | 0.21
COc1ccc(-c2c(NCCC3=CCCCC3)c(=O)c2=O)cc1 | nt | 1.4
CCOc1nc(-c2ccc(C)cc2)ccc1-c1noc(-c2ccncc2)n1 | 0.18 | -1.7
COc1ccc(-c2nc(-c3ccc(C)cc3)no2)cc1 | -0.92 | 0.09
CC(=O)Oc1ccc(Cl)cc1C1=NN(C(C)=O)C(c2ccc(-c3ccc(F)cc3)o2)O1 (configuration not stated) | nt | 1.5
O=C(NCc1ccc(F)cc1)C1CCC(=O)N1C1CCCC1 (configuration not stated) | -2 | nt

# Whole records, looked up by structure.
# Record of CCOc1nc(-c2ccc(C)cc2)ccc1-c1noc(-c2ccncc2)n1 : CDC25B CDK2 inh: 0.18; HIV TAR-Tat: -1.7
# Record of OCCc1cn(-c2ccccc2)c2ccccc12 : CDC25B CDK2 inh: -0.43; HIV TAR-Tat: 0

# (listing goes on)
SMILES | CDC25B CDK2 inh | HIV TAR-Tat
Cc1nnc2n1NC(c1ccc(F)cc1)C(C(=O)Nc1ccc(Br)cc1F)S2 (configuration not stated) | -0.83 | -0.08
COc1ccccc1N1CCN(c2ncnc3onc(C)c23)CC1 | nt | -2.5
O=C(CSc1nccn1Cc1ccco1)Nc1ccc(F)cc1 | nt | 1.4
Cc1cc(C2CCCCC2)n(O)c(=O)c1 | nt | 2.2
COc1ccc(-c2nc(C#N)c(NC3CCCCC3)o2)cc1 | 0.35 | 0.53
COc1ccc(Nc2nc3ccccc3n3nnnc23)c(OC)c1 | 1.4 | -5.3
NC(=O)c1c(NC(=O)c2sc3cc(Cl)ccc3c2Cl)sc2c1CCC2 | -0.63 | -1.3
COc1cc(CCC(C)=O)ccc1OC(=O)c1cccs1 | -0.63 | nt
CCCc1cc(=O)oc2cc(OC(C)C(=O)OCC)ccc12 (configuration not stated) | 1.8 | nt
CCCN1C(SCC(=O)NCc2cccs2)=NS(=O)(=O)c2ccccc21 | nt | 0.03
COC(=O)CSc1ncn(-c2nc(C)cc(N3CCOCC3)n2)n1 | -0.96 | 0.7
COc1ccc(Br)cc1-c1nc(CSc2nc3ncccc3[nH]2)c(C)o1 | nt | 0.78
Cc1nn(C(C)C(=O)NCCC(C)C)c(=O)c2c1sc1ccccc12 (configuration not stated) | -0.59 | 3.1
Cc1cc(C)cc(-n2nnc(-c3nc(-c4ccc5c(c4)OCO5)no3)c2C)c1 | nt | 0.41
O=C(C1CCCN(S(=O)(=O)c2ccc3[nH]c(=O)oc3c2)C1)N1CCN(c2ccccc2)CC1 (configuration not stated) | nt | 0.28
COc1cccc(C2C3=C(CCCC3=O)Nc3nc(SCc4ccccc4C)nn32)c1OC (configuration not stated) | -1.6 | -0.88
Cn1cnc(S(=O)(=O)NC2CC2)c1 | nt | 1.4
O=C(NCc1cccs1)c1cc2c(s1)-c1ccc(Cl)cc1SC2 | -0.19 | 1.6
Cc1ccc(Cl)cc1NS(=O)(=O)c1ccc2c(c1)[C@H]1C=CC[C@H]1[C@@H](c1ccc(C(=O)O)cc1)N2 | -0.54 | nt
O=C(NC1CCCC1)c1ccc2c(=O)n(Cc3ccccc3)c3n[nH]c(=O)n3c2c1 | -1.1 | 1.7

# Next section
SMILES | CDC25B CDK2 inh | HIV TAR-Tat
CCS(=O)(=O)N1CCN(Cc2cc(Br)ccc2O)CC1 | -1.2 | 0.01
CCc1ccc(CNc2nc(-c3ccccc3F)no2)cc1 | nt | 0.13
Cc1cc(C)cc(NS(=O)(=O)c2cc(-c3cnc(C4CC4)o3)ccc2C)c1 | nt | 1.2
COc1ccc2c(c1)CC(C(=O)N1CCN(C3CCCCC3)CC1)CO2 (configuration not stated) | nt | 0.63
Cc1c(C(=O)O)nnn1-c1ccccc1 | -0.21 | 0.62
COc1ccc(N2C(=O)CC(N3CCN(c4ccc(F)cc4)CC3)C2=O)cc1 (configuration not stated) | -0.04 | -1.9
O=C(O)c1ccccc1-c1ccccc1C(=O)Nc1c[nH]c(=O)[nH]c1=O | -1.6 | -0.12
CCOC(=O)C1CCN(c2c(C(=O)c3ccc(C)cc3)cnc3cc4c(cc23)OCO4)CC1 | -0.78 | 3.4
Cc1cc(C)n(C(C)C(=O)Nc2ccc(Br)cc2)c(=O)n1 (configuration not stated) | 1.9 | 0.35
Cc1ccc(OC(C)c2nc(-c3ccc(C)cc3)no2)cc1 (configuration not stated) | 1.3 | 1.2
COC(=O)c1ccc(N)c(C(=O)O)c1 | nt | 3.1
Cc1ccc(-c2noc(C3CCCN(S(=O)(=O)c4ccc(C)cc4)C3)n2)cc1 (configuration not stated) | -1.8 | 0.82
C(=C\c1nn[nH]n1)/c1ccccc1 | 1.7 | nt
O=C(Nc1ccc(F)cc1F)c1noc2c1CCc1sccc1-2 | nt | 0.58
CN1C(C(=O)NCc2cccs2)=CC(c2ccco2)=NS1(=O)=O | -1.6 | 1.3
Cc1nn(-c2nc3ccc(Br)cc3s2)c2c1C(c1ccc(C(=O)O)cc1)CC(=O)N2 (configuration not stated) | nt | 0.48
CCOCCc1nn2c(=O)cc(COC(=O)C3CCCCC3)nc2s1 | nt | 0.2
CCN1CCN(c2nc(Nc3ccccc3)c3cnn(C)c3n2)CC1 | nt | 1.5
Cc1ccc(OCc2ccc(-c3nc(C#N)c(NCCN(C)C)o3)o2)cc1 | 1.6 | 1.2
Cc1ccc(Nc2c3c(nc4nncn24)CCC3)cc1 | -2.3 | -0.17

# Of the compounds above, five have bromine:
SMILES | CDC25B CDK2 inh | HIV TAR-Tat
Cc1nnc2n1NC(c1ccc(F)cc1)C(C(=O)Nc1ccc(Br)cc1F)S2 (configuration not stated) | -0.83 | -0.08
COc1ccc(Br)cc1-c1nc(CSc2nc3ncccc3[nH]2)c(C)o1 | nt | 0.78
CCS(=O)(=O)N1CCN(Cc2cc(Br)ccc2O)CC1 | -1.2 | 0.01
Cc1cc(C)n(C(C)C(=O)Nc2ccc(Br)cc2)c(=O)n1 (configuration not stated) | 1.9 | 0.35
Cc1nn(-c2nc3ccc(Br)cc3s2)c2c1C(c1ccc(C(=O)O)cc1)CC(=O)N2 (configuration not stated) | nt | 0.48

# Carrying on:
SMILES | CDC25B CDK2 inh | HIV TAR-Tat
CCCCCCN1C2=NCCN2c2ccccc21 | 0.91 | 0
Cn1cccc1C1(C(F)(F)F)NN(c2ccccc2)C(N)=C1C#N (configuration not stated) | -1.9 | nt
Cc1ccc(C2C3=C(Nc4ncnn42)c2ccccc2OC3c2cccc(F)c2)cc1 (configuration not stated) | -0.75 | nt
Cc1ccc(S(=O)(=O)CCc2nc(S(=O)(=O)c3ccc(C)cc3)c(N(C)C)o2)cc1 | -1.6 | 0.51
CSc1nnc2c(n1)OC(c1cccs1)N(C(C)=O)c1ccccc1-2 (configuration not stated) | -0.02 | 0.4
CC(C)Cn1cc(NC(=O)NCCN2CCN(C)CC2)c2ccccc2c1=O | nt | 0.44
O=C(CCc1nnc2ccc(NCc3ccco3)nn12)Nc1ccc(F)cc1F | nt | 0.68
CCN(CC)c1c(S(=O)(=O)c2ccccc2)cnc2ccccc12 | 0.94 | -0.55
CC1=C(c2ccc(C)cc2)S(=O)(=O)N=C1N(Cc1ccccc1)C(C)C | 1.6 | 0.93
Cc1nn2cnnc2c(C)c1CCC(=O)NCCC1=CCCCC1 | nt | 1.3
O=c1cc(CSc2n[nH]c(-c3ccccc3)n2)nc2sc3c(n12)CCCC3 | nt | -0.75
CCC1Sc2ccccc2NC1=O (configuration not stated) | nt | 0.37
CCOC(=O)Cn1c(-c2c(Cl)cccc2Cl)noc1=O | -0.62 | nt
O=C1CCCc2cc(S(=O)(=O)N3CCC(C(=O)N4CCc5ccccc54)CC3)ccc2N1 | nt | -0.76
O=C(O)CNC(=O)CSc1ccccn1 | -1.5 | nt
O=C(NCC(c1ccco1)S(=O)(=O)c1cccs1)C(=O)NC1CCCCC1 (configuration not stated) | nt | 0.9
CCN(c1ccccc1)S(=O)(=O)c1ccc2c(c1)CC(C)N2C(C)=O (configuration not stated) | nt | -0.67
N/C(CS(=O)(=O)c1ccc(Cl)cc1)=N\O | -1.6 | nt
Cn1c(=O)oc2cc(S(=O)(=O)N3CCCC(C(=O)NC4CCCCCCC4)C3)ccc21 (configuration not stated) | -1.2 | nt
COc1ccccc1CCN[C@H]1CS(=O)(=O)C[C@@H]1S(=O)(=O)c1ccccc1 | -1.9 | -1.9

# Next part
SMILES | CDC25B CDK2 inh | HIV TAR-Tat
NNC(=O)CSCc1nc(-c2ccccc2)cs1 | 0.78 | nt
COc1cc2c(cc1OC)C(c1ccccc1)CC2=O (configuration not stated) | -2.4 | nt
CO[C@H]1C[C@@H]2CC[C@@H](C)[C@@](O)(O2)C(=O)C(=O)N2CCCC[C@H]2C(=O)OC([C@H](C)C[C@H]2CC[C@H](O)[C@@H](OC)C2)CC(=O)[C@H](C)/C=C(\C)[C@@H](O)[C@@H](OC)C(=O)[C@H](C)C[C@H](C)/C=C/C=C/C=C/1C (some centres not stated) | nt | 2.4
O=C(OCc1cc(=O)n2nc(C3CC3)sc2n1)c1ccc(NC(=O)c2ccco2)cc1 | nt | 0.07
CN(C)S(=O)(=O)c1ccc2c(c1)nnn2CCNC(=O)Nc1ccc(Br)cc1 | nt | 1.3
CCCc1nn2c(=O)cc(COc3ccc(C(C)C)cc3)nc2s1 | -0.92 | 0.69
c1ccc(-c2noc(-c3cccnc3NC3CCCC3)n2)cc1 | -1.1 | 1.3
COc1cc(Br)c(C2CC(=O)NC3=C2C(=O)CC(C)(C)C3)cc1OC (configuration not stated) | -0.91 | -5.5
O=c1cc(CSc2nc3ccccc3[nH]2)nc2sc3c(n12)CCCC3 | -0.33 | 0.08
O=C(Nc1csc2ccccc12)NC1CC1 | 2.7 | nt
CCN1C(=O)c2cc(C(=O)NCCN(C)C)nn2CC1(C)C(=O)NC1CCCC1 (configuration not stated) | nt | 0.56

# High-throughput results deposited in PubChem BioAssay by Center for Chemical Genomics, University of Michigan.
